Screening results (PubChem BioAssay)
Ecoli rRNA inh = reduced GFP signal of wild-type E. coli, primary screen, bacterial rRNA inhibitor project, GFP/RFP fluorescence, OD600, single point. E. coli WT GFP vs humanized-ribosome RFP mutants, 24 h; hits give low values; DMSO median 0, no signal -100. GFP signal change (wild-type ribosome), % (no concentration beside the values). 1.6% of 350,000 active;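 active means significant combined selectivity score with lowered wild-type GFP, culture density cut under 30%, mutant RFP and density less affected; inactive means any of these conditions unmet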; further: one replicate is shown; some compounds called inactive have numbers as strong as hits
MLL AF4-AF9 inh = inhibitors of AF4 peptide binding to AF9, primary screen, biochemical, AlphaScreen, biotin-AF4 peptide, FLAG-AF9, single point; 0.47% of 350,000 active; Protein AF-9 (Homo sapiens), P42568; inhibition, % at 10 µM;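 active means every replicate reaching a set inhibition limit, whatever the replicate mean, cut at about 25% in these data; inconclusive means mean inhibition reaches that limit but some replicates miss it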;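 further: 0% = plate neutral control median and 100% = total signal loss; the record names both 10 and 1 µM as test concentration; the first replicate is given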
ALR H2O2 inh = inhibitors of human ALR sulfhydryl oxidase, primary screen, biochemical, H2O2 detection, HRP-luminol luminescence, single point. AID 485317, 2010. purified ALR, DTT oxidation. FAD-linked sulfhydryl oxidase ALR (Homo sapiens), P55789. 3.8% of 290,000 active. inhibition, % (concentration not given with the values);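 active means mean and each replicate at 75% or more; inconclusive means only one of the two met; inactive means neither met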;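 further: stock transfer was 7.5 nL into about 7.5 µL; 0% = neutral wells and 100% = wells with inactivated enzyme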
Target sequence (P55789 whole entry, looked up): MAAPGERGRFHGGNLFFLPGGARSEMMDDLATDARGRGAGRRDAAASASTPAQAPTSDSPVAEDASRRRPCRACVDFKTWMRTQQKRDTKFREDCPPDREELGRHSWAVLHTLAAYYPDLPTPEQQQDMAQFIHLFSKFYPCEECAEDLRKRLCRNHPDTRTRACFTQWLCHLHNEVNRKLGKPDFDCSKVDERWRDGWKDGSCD
HNF4A DNA FP = change in binding of human HNF4A to DNA, primary screen, biochemical, fluorescence polarization, FITC-DNA; 1 h; activity change, % at 10 µM; 0.3% of 360,000 active; in the data active means activity change above about 30%, passing the limit was not always enough;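 further: controls were the assay level and a saturating level of protein; the project sought stronger binding though the title names inhibitors; some compounds called inactive have numbers as strong as hits; positive values seem to mean higher polarization but the record does not say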
Target sequence (P41235 whole entry, looked up): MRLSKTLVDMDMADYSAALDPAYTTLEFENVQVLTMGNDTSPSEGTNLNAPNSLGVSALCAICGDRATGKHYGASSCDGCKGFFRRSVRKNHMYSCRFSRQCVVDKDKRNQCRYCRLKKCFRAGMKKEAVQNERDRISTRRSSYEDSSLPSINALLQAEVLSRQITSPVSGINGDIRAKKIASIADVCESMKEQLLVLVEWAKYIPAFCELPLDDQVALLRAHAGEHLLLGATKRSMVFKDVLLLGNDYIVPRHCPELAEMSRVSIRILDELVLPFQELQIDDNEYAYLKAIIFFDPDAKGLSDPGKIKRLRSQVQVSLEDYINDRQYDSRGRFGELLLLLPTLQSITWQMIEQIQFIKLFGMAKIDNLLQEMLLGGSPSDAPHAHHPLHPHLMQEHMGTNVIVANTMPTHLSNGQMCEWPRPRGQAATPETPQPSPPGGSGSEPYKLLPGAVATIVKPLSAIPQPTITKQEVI
Vif TR-FRET = inhibitors of Vif binding to APOBEC3G peptide, primary screen, biochemical, TR-FRET, GST-Vif 1-94, biotin-A3G peptide, dose response retest (AID 1117319). Virion infectivity factor (Human immunodeficiency virus type 1 group M subtype B (isolate …. TR-FRET GST-Vif / biotin-A3G peptide binding; higher % means a stronger effect; test concentration not given here; strong numbers were not always called active. 0.57% of 260,000 active. one-dose inhibition, %; IC50 in µM for titrated hits;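 active means above the screen mean plus three standard deviations and confirmed in dose response; inconclusive means results disagree or hit not tested in dose response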;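 further: Vif residues 1-94 fused to GST binding biotinylated APOBEC3G peptide 110-148; 0% = full assay without inhibitor and 100% = GST in place of GST-Vif; retest series ran down from 100 µM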
Ecoli growth = E. coli growth inhibition, primary screen, OD600; Escherichia coli growth, 23 h; hits give low values; OD600 absorbance (no concentration beside the values); 0.21% of 330,000 active; AID 1053175, 2014;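 active means OD600 absorbance below the run mean of sample wells minus 3.6 SD, in any replicate, cut at about 0.56 in these data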;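 further: stock transfer was 300 nL into about 60 µL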
FGF22 binding = binders of human FGF22 protein, primary screen, FGF22 synaptogenesis inhibitor project, biophysical, thermal shift, single point. AID 651658, 2012. recombinant FGF22 thermal shift, SYPRO orange fluorescence; percent of sucrose octasulfate shift, DMSO zero. 1.5% of 340,000 active. calls only at 9.99 µM. Fibroblast growth factor 22 (Homo sapiens), Q9HCT0;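 active means melting point raised past a set limit in the mean and every replicate; inconclusive means no clear call; three in four hits are not shown here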
Target sequence (Q9HCT0 whole entry, looked up): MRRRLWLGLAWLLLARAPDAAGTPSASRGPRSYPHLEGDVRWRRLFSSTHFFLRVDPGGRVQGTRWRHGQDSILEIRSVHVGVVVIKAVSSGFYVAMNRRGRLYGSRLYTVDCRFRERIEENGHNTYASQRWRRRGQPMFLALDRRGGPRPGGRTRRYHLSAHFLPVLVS
Ecoli rRNA inh OD600 = recorded beside Ecoli rRNA inh, whose call it bears; OD600 change, %; measured here: OD600 growth;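 optical density of the mix in the first replicate; 0 = DMSO median and -100 = no signal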
Ecoli rRNA inh RFP = recorded beside Ecoli rRNA inh, whose call it bears; RFP signal change, %; measured here: RFP humanized mutant strains;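 first replicate; 0 = DMSO median and -100 = no signal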
An asterisk follows results filed as active; i = inactive; ? = inconclusive; . = no result given.

SMILES	Ecoli rRNA inh	Ecoli rRNA inh OD600	Ecoli rRNA inh RFP	MLL AF4-AF9 inh	ALR H2O2 inh	HNF4A DNA FP	Vif TR-FRET	Ecoli growth	FGF22 binding
S=C(NCCCN1CCOCC1)Nc1cccc(-c2nnc3n2CCCCC3)c1	15.2	7.9	1.8	-3.1	-0.7	-3.4	0.0%	0.631	i
O=C1CC(N2CCN(c3ccc(Cl)c(Cl)c3)CC2)C(=O)N1 (centres undefined)	.	.	.	.	10.8	-2.0	?	0.682	.
CC(C)CC#Cc1cnc2c(c1)C(=O)N([C@H](C)CO)C[C@H](C)[C@@H](CN(C)C(=O)CN1CCOCC1)O2	2.4	9.9	-3.5	-5.9	.	.	.	.	i
Cc1ccc(-c2nnn(C/C(N)=N/O)n2)cc1	-3.1	0.3	-1.6	-2.3	-0.8	-0.8	-5.7%	0.642	i
COc1cc([C@@H]2CC=C(C(=O)O)[C@H](c3ccc(C)cc3)N2S(=O)(=O)c2ccc(C)cc2)cc(OC)c1OC	-10.8	-3.2	0.7	-1.1	.	4.4	.	0.675	i
CCOC(=O)c1sc(Nc2ccc(F)cc2)nc1C	23.6	15.7	-1.3	-1.3	-2.7	-1.5	?	0.685	i
Cc1cccc(C(=O)Oc2ccc(/C=N/NC(=O)Cc3ccc([N+](=O)[O-])cc3)cc2)c1	.	.	.	.	-0.9	6.0	7.5%	.	.
Cc1ccc(C(=O)Nc2nc3ccccc3s2)s1	.	.	.	.	.	3.4	1.3%	0.728	.
O=C(c1ccccn1)N1CC2(C1)[C@H](c1ccccc1)[C@H](CO)N2Cc1ccc(F)cc1	-1.4	4.2	1.3	-0.7	.	.	.	.	i
Cc1cccc(C(=O)c2cn[nH]c2-c2ccc(C)cc2O)c1	-28.5	-23.3	-3.2	-1.4	70.6	-2.3	-7.0%	0.602	i
Cc1ccc2cc(C(=O)O)c(C)nc2c1	.	.	.	.	-6.3	0.6	28.3%	0.738	.
COc1cccc(NC(=O)c2cc(=O)c3ccccc3o2)c1	-8.0	-4.4	-1.5	-3.7	-4.7	0.1	.	0.655	i
COc1ccc(C(=O)COC(=O)CNC(=O)C2CCCCC2)c(OC)c1	5.8	10.2	2.4	.	-7.2	-0.7	11.6%	0.709	.
O=C(c1ccco1)N1CCN(C(=O)C2CC(c3ccc(Cl)c(Cl)c3)=NO2)CC1 (centres undefined)	.	.	.	.	2.7	-2.4	12.9%	0.64	.
C[C@H](CO)N1C[C@H](C)[C@@H](CN(C)Cc2ccc(Cl)c(Cl)c2)Oc2ccc(NS(=O)(=O)c3ccc(Cl)cc3)cc2CC1=O	1.5	7.8	1.2	0.1	.	.	.	.	i
COC(=O)CCCC1=CC2=CC(=O)C(C)(OC(=O)c3cccs3)C(=O)C2=CN1CCN1CCOCC1 (centres undefined)	5.0	-2.0	7.5	-7.2	-24.7	-0.7	6.5%	0.711	i
CCOC(=O)COC(=O)c1ccc(Oc2cc(C)nc(SC)n2)cc1	.	.	.	.	-1.5	-1.3	-3.8%	0.704	.
Cc1cc(C)c(NC(=O)CCCOC(=O)C2=COCCO2)c(C)c1	.	.	.	.	-5.1	-0.7	8.1%	0.749	.
Cc1ccnc(NC(=O)CCNC(=O)c2ccccc2Cl)c1	4.0	9.0	-1.8	-3.5	-7.4	0.8	.	0.669	i
COC(=O)c1ccc(OC)c(CSc2nnc(COc3cccc(C)c3)o2)c1	.	.	.	.	12.0	0.7	-0.1%	0.748	.
COCCOC(=O)c1c(NC(=O)CNc2ccc(C)c(F)c2)sc(C(N)=O)c1C	8.2	6.1	4.0	-2.6	.	2.2	-1.5%	0.716	i
COc1ccc(/C=C/C(=O)N(CC(C)C)CC(C)C)cc1Br	.	.	.	.	-1.1	0.5	10.3%	0.764	.
CN1CCC(N2CCN(c3cccc(C(F)(F)F)c3)CC2)CC1	.	.	.	.	-6.9	0.8	5.0%	0.673	.
CC(C)(C)N(Cc1ccccc1)C(=O)COC(=O)CSc1ccc([N+](=O)[O-])cc1	3.0	10.9	2.8	3.6	34.8	2.5	-8.5%	0.641	i
Cc1ccc(N2C(=O)c3ccccc3NC2c2ccccc2O)cc1 (centres undefined)	2.2	0.0	3.1	-3.5	26.7	-5.1	-3.3%	0.661	i
COc1ccc2c3c([nH]c2c1)[C@@H](CO)N(C(=O)c1cccnc1)CC31CCN(C(=O)Nc2cccc(F)c2)CC1	-5.4	-19.1	0.5	4.4	.	.	.	.	i
CN(C)/C=N/c1c(C#N)cnn1-c1ncnc2sc(-c3ccccc3)cc12	-39.1	-46.8	-7.7	.	-16.4	0.6	22.0%	.	.
COc1ccc2cc(C(=O)C3CCCN(C(=O)c4snnc4C)C3)ccc2c1 (centres undefined)	-32.1	-40.8	0.2	2.6	.	5.9	-12.5%	0.695	i
CCOc1ccc(-c2cc(NC(=O)c3c(F)cccc3F)c(C(=O)O)s2)cc1	-56.4	-74.7	-18.6	3.4	57.5	-0.1	-15.5%	0.681	i
O=C1NC(c2ccccc2)=CC(c2ccccc2O)N1 (centres undefined)	2.0	-4.0	-0.6	-0.7	-6.1	-2.6	.	0.667	i
CCCCN(CC)S(=O)(=O)c1ccc2c(c1)n(C)c(=O)c(=O)n2C	3.0	-1.4	-4.3	-26.1	4.8	-1.5	-5.5%	0.657	i
Cc1ccc(NC(=O)Nc2ccc3c(c2)C(=O)N(C)[C@@H]2CC[C@@H](CC(=O)NCC(F)(F)F)O[C@@H]2CO3)cc1	-0.7	-6.7	4.1	4.7	.	.	.	.	i
CCNC(=O)[C@H]1[C@H](CO)[C@H]2Cn3c(ccc(-c4ccc(F)cc4)c3=O)[C@@H]1N2C	1.2	-1.1	0.4	-2.4	.	.	.	.	i
Cc1nn(Cc2c(Cl)cccc2Cl)c(C)c1NC(=O)CCCn1nc([N+](=O)[O-])c(Cl)c1C	10.1	31.2	7.5	-2.9	-5.1	-1.0	-7.6%	0.674	i
COc1ccc(NC(=O)N(C)C[C@H]2Oc3ccc(NS(=O)(=O)c4ccc(F)cc4)cc3CC(=O)N([C@@H](C)CO)C[C@@H]2C)cc1	4.6	11.9	-0.4	0.1	.	.	.	.	i
CC1CCCCN1C(=O)COC(=O)c1ccc(=O)n(Cc2ccccc2)n1 (centres undefined)	3.9	3.8	-2.0	1.4	-6.1	2.1	-4.8%	0.721	i
NC(=O)C1CCN(C(=O)CCC(=O)c2cccs2)CC1	3.2	11.3	-0.7	-2.2	0.6	5.5	0.8%	0.657	i
COc1ccccc1-n1nnnc1SCC(=O)NCC1(N2CCOCC2)CCCCC1	-0.1	-3.7	-0.1	26.8*	49.1	1.9	.	0.701	i
O=C(Nc1ccccc1)C1C2/C=C\CCCCC21 (centres undefined)	1.6	0.9	-0.9	0.9	4.8	4.0	-1.9%	0.689	i
CN1C(=O)[C@@](O)(CC(=O)c2ccccc2)c2cc(Br)ccc21	8.6	1.0	-0.6	1.0	.	4.0	.	.	i
O=C(Nc1ccnn1C1CCN(CCCc2ccccc2)CC1)c1cccc(F)c1	6.0	25.4	3.0	-1.3	3.4	0.0	-5.0%	0.677	i
COc1cc(/C=C(\C#N)c2nc3ccccc3[nH]2)cc(Br)c1OCc1ccc(F)cc1	.	.	.	.	2.2	3.2	8.0%	0.701	.
COc1ccc2ccccc2c1/C=N\NC(=O)c1ccc(C)s1	8.9	13.6	-0.8	-1.0	-6.3	-1.9	.	.	i
CC1CCN(S(=O)(=O)c2ccc(NC(=O)CN3CCCCCC3)cc2)CC1	11.1	4.2	4.5	-2.2	-9.8	-0.8	-2.5%	0.699	i
O=C(CS(=O)(=O)c1cn(CC(=O)N2CCCC2)c2ccccc12)Nc1ccccc1	0.7	26.4	2.3	0.6	-22.5	-0.9	1.8%	0.716	i
COc1cccc(CNC(=O)C[C@@H]2CC[C@@H](NC(C)=O)[C@H](CO)O2)c1	0.5	7.0	0.3	-1.5	.	.	.	.	i
COc1ccc(CN2CCNC(=O)C2CC(=O)NCCCC2CCCC2)c(F)c1 (centres undefined)	-17.4	-30.3	3.5	-1.5	2.9	0.7	.	0.714	i
Cn1nc(C(=O)NCc2cccnc2)c2ccccc2c1=O	.	.	.	.	-4.2	1.1	2.6%	0.68	.
Cc1cccc(CN2C3=NCCCN3c3ccccc32)c1	15.8	1.9	-8.4	-2.5	-0.2	-3.5	-10.3%	0.664	i
Cc1cccc2c3c([nH]c12)CCN(C)C3	12.7	10.9	-2.7	8.6	-0.4	1.5	-2.9%	0.678	i

Complete entries from above.
COc1ccc(CN2CCNC(=O)C2CC(=O)NCCCC2CCCC2)c(F)c1 (centres undefined) across the screens: Ecoli rRNA inh = -17.4; Ecoli rRNA inh OD600 = -30.3; Ecoli rRNA inh RFP = 3.5; MLL AF4-AF9 inh = -1.5; ALR H2O2 inh = 2.9; HNF4A DNA FP = 0.7; Vif TR-FRET = .; Ecoli growth = 0.714; FGF22 binding = i
COc1cccc(CNC(=O)C[C@@H]2CC[C@@H](NC(C)=O)[C@H](CO)O2)c1 across the screens: Ecoli rRNA inh = 0.5; Ecoli rRNA inh OD600 = 7.0; Ecoli rRNA inh RFP = 0.3; MLL AF4-AF9 inh = -1.5; ALR H2O2 inh = .; HNF4A DNA FP = .; Vif TR-FRET = .; Ecoli growth = .; FGF22 binding = i

Next results follow.
SMILES	Ecoli rRNA inh	Ecoli rRNA inh OD600	Ecoli rRNA inh RFP	MLL AF4-AF9 inh	ALR H2O2 inh	HNF4A DNA FP	Vif TR-FRET	Ecoli growth	FGF22 binding
C[C@@H]1CN([C@@H](C)CO)S(=O)(=O)c2ccc(-c3ccccc3)cc2O[C@@H]1CN(C)C(=O)CC1CC1	-6.8	-19.9	3.8	0.4	.	.	.	.	i
COc1cc(OC)c(-c2c3cc(O)c(=O)cc-3oc3cc(O)c(O)cc23)cc1OC	75.0	21.4	44.8	13.3	?	-89.8	.	0.706	i
O=C(NCC1CCCN1S(=O)(=O)c1cccs1)C(=O)Nc1ccc(F)cc1 (centres undefined)	-10.8	-3.2	3.0	-1.0	-3.2	-2.6	-5.8%	0.653	.
CCOC(=O)NN=C1c2ccccc2-c2ccccc21	-10.2	-10.2	-3.7	5.1	31.9	-2.8	-6.4%	0.644	i
O=C(/C(=C/c1ccc(Cl)cc1)c1nc2ccccc2[nH]1)c1ccccc1	.	.	.	.	-1.2	4.1	23.7%	0.654	.
Cc1nc(S(=O)(=O)c2ccc(Cl)cc2)c(N(C)C)o1	7.9	17.0	-2.8	-0.7	8.0	2.2	5.2%	0.788	i
Cc1csc(SCC(=O)NCCc2ccc(Cl)cc2Cl)n1	.	.	.	.	-53.3	1.2	?	0.587	.
CC(=O)c1cccc(NC(=O)CC2Oc3ccc(C)cc3NC2=O)c1 (centres undefined)	-0.2	-11.5	-2.8	-1.4	8.9	0.8	62.4%	0.779	i
CCC(C(=O)NC1CCCC1)N(C(=O)c1snc(C(N)=O)c1N)c1ccc(OC)cc1 (centres undefined)	5.5	-0.3	-2.5	-4.1	.	1.0	-19.2%	.	i
CC(=O)c1c(C)n(-c2ccc(Cl)cc2)c2ccc(O)cc12	2.2	7.6	-1.0	-8.6	-11.6	1.0	.	0.706	i
Cc1ccc2c(C)c(C(=O)N3CCC(O)(c4ccccc4)CC3)oc2c1C	-48.0	-76.4	-12.4	-8.5	-1.4	-0.2	.	0.63	i
COc1cc(C=O)ccc1OCCOCCOc1ccccc1Cl	.	.	.	.	-61.2	1.5	10.3%	0.718	.

Only part of the results is shown; rates above refer to the full screens.
